Screening data as filed in PubChem.
PINK1 expr mod: changes PINK1 expression; PINK1 immunofluorescence, high-content cytometry, 24 h; Potency, µM (top dose mostly 76.6 µM), for the others: at the highest dose activation (PINK1 increase), usual class: activators; 410,000 compounds, 0.2% hits; AID 624263; active = well fitted activation curve with a large enough effect; inconclusive = small, poorly fitted or top-dose-only effect; inactive = flat fitted curve, though single readings scatter; cell line not stated here;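 also: % of control where 0% means no effect; nearly all actives have a fitted effect of over 65% in size; a mitochondrial uncoupler was the plate control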
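Fluorescence from anti-PINK1 antibody, together with nuclear and cell stains, was scanned on a laser-scanning cytometer. Before staining, stable-line cells were incubated 24 hours with compounds at 5 concentrations; primary antibody 12 h at 10 degrees C.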
An asterisk follows results filed as active; ? = inconclusive. Potency is read from the fitted curve at half-maximal effect. The list is partial; count on the stated rates, not on these rows.

The opening 2 compounds, to show the layout:
SMILES | PINK1 expr mod
COc1ccc(NC(=O)Nc2cccc(OCc3cc(=O)n4cccc(C)c4n3)c2)c(OC)c1 | -0.2%
COc1ccc(CCn2c3c(c(=O)[nH]c2=S)CN(Cc2ccccc2)CN3)cc1OC | -0.3%

All compounds of this part, from the first entry:
SMILES | PINK1 expr mod
COc1ccc(NC(=O)Nc2cccc(OCc3cc(=O)n4cccc(C)c4n3)c2)c(OC)c1 | -0.2%
COc1ccc(CCn2c3c(c(=O)[nH]c2=S)CN(Cc2ccccc2)CN3)cc1OC | -0.3%
CC1CCCN(c2ncnc3c2cnn3-c2ccc(F)cc2)C1 (stereo unspecified) | -1.0%
COc1ccc2nc3oc(C(=O)NCc4ccccc4OC)cc3cc2c1 | -0.6%
CC(=O)N1CCc2c(sc3c2c(=O)n(CCc2ccccc2)c(=O)n3CC(=O)Nc2ccc(C)c(F)c2)C1 | 1.5%
O=C(Nc1ccc(OC(F)(F)F)cc1)C(NS(=O)(=O)c1cccc2nsnc12)c1ccccc1 (stereo unspecified) | 6.5%
CCOc1ccc(NC(=O)Cn2nc(CC)n3c(cc4sccc43)c2=O)cc1 | -0.8%
COc1cc(OC)c(NC(=O)N2CCOc3ccc(C)cc32)cc1Cl | -0.3%
CS(=O)(=O)c1ccc(-c2ccc3c(c2)CC(CNC(=O)C2(N4CCOCC4)CCCCC2)O3)cc1 (stereo unspecified) | -0.4%
Oc1ccc(Cl)cc1CN1CCOc2c(O)cc(-c3nc4ccccc4s3)cc2C1 | 1.6%
CC(C)CC1Nc2ccc(C(=O)NCCCOC(C)C)cc2NC1=O (stereo unspecified) | 4.8%
CCOC(=O)c1cc(-c2ccc(C)cc2)n(CCC(=O)NCc2ccccc2)c1C | 0.9%
COc1ccccc1CNC(=O)c1cnc2sc(N3CCCCCC3)nn2c1=O | -0.2%
Cc1cccc(N2CCN(S(=O)(=O)c3cc(C(=O)Nc4ccc(Oc5ccccc5)cc4)ccc3F)CC2C)c1 (stereo unspecified) | -0.6%
CN(C)c1ccc(-c2nc3cnccn3c2Nc2cccc(C(F)(F)F)c2)cc1 | 5.7%
CC(C)(C)c1ccc(CSC2=Nc3ccccc3C3=NC(CC(=O)NCc4cccs4)C(=O)N23)cc1 (stereo unspecified) | 1.7%
CCOc1ccc(-c2nc3c(c(CC)nn3-c3ccccc3)c3cc(OC)c(OC)cc23)cc1 | 0.0%
O=C(CSc1nc(-c2ccccc2)nc2c1CCCC2)c1ccc(F)cc1 | -1.4%
Cn1cnc(S(=O)(=O)N2CCC(C(=O)Nc3ccc(OC(F)(F)F)cc3)CC2)c1 | 0.6%
O=C(CSc1nc2ccccc2n1Cc1ccccc1)N1CCN(c2ccc(F)cc2)CC1 | 0.3%
COc1ccc2c(c1)c1c(c(=O)n(-c3ccc(F)c(Cl)c3)c(=O)n1Cc1ccccc1F)n2C | 6.7%
COc1ccc(/C=C/C(=O)Nc2ccc3nc4c(c(Nc5ccc(OC)c(OC)c5)c3c2)CCCC4)cc1 | -0.5%
Cc1ccc(CNC(=O)Cc2c(C)c3c(cc(C)c4c(C)coc43)oc2=O)cc1 | 0.3%
CC1=C(C(=O)Nc2cccnc2)C(c2cccc(F)c2)n2nc(SCc3ccccc3)nc2N1 (stereo unspecified) | 7.8%
CCCCc1ccc(NC(=O)COc2cccc3c(=O)n(C)ccc23)cc1 | 4.1%

The list continues.
SMILES | PINK1 expr mod
CCOc1ccccc1CNC(=O)CCCn1nc(C)c2sc3ccccc3c2c1=O | 1.2%
Cc1cccc(Oc2ccc3c(c2)Oc2ccccc2NC3=O)c1 | 30%
COCCN1CCN(C(=O)c2cnn(-c3nccc(-c4ccccc4OC)n3)c2-c2ccco2)CC1 | -0.3%
Cc1ccc(CN(C(=O)c2ccccc2F)c2ccccn2)o1 | 5.8%
COc1cc(C)ccc1OCCSc1nc2ccc(NC(=O)c3ccc(F)cc3)cc2s1 | 1.1%
Cc1ccc(NC(=O)CSc2nc3ccc(NC(=O)c4cccs4)cc3s2)cc1 | 5.7%
CSc1ccccc1C(=O)NCC1Cc2cccc(-c3ncccc3C)c2O1 (stereo unspecified) | -0.1%
CC(C)(C)OC(=O)N1CCC(c2c(C(=O)N3CCc4ccccc4C3)cnn2-c2ccc(Cl)cc2)CC1 | 1.5%
COc1ccc(C2(N3CCN(c4cccc(C)c4C)CC3)C(=O)c3ccccc3C2=O)cc1 | 2.4%
Cc1ccc2c(c1)N(C(=O)c1ccc(F)cc1)C(C)(C)CC2(C)c1ccccc1 (stereo unspecified) | ?
CCOc1ccccc1NC(=O)c1c(NC(=O)COc2ccccc2)sc2c1CCCC2 | 0.0%
Cn1nc(-c2ccc(N3CCCCC3)c(NC(=O)c3ccc(Cl)cc3)c2)c2ccccc2c1=O | 3.2%
CCc1ccccc1NC(=O)C1CCN(S(=O)(=O)c2ccccc2)CC1 | -1.4%
NC(=O)COC(=O)c1ccccc1OCC(=O)Nc1ccc(Br)cc1 | 0.7%
CCOc1ccc(OCC)c(NC(=O)Cn2nc(CC)n3c(cc4sccc43)c2=O)c1 | -1.6%
Cc1ccc(Cl)cc1-n1ncc2c(NC3CCCCCC3)ncnc21 | ?
Cc1cc(C)cc(NC(=O)Cn2c(C)cc(C)c(C#N)c2=O)c1 | -1.8%
Cc1cc(C)c2oc(C(=O)Nc3c(C(=O)c4ccc(F)cc4)oc4ccccc34)cc(=O)c2c1 | ?
CC1=C(C(=O)Nc2ccc(Cl)cc2)C(C(C)C)n2nc(SCc3ccc(Cl)cc3)nc2N1 (stereo unspecified) | -0.8%
COC(=O)c1cc(CNC(=O)c2ccccc2)cc(NC(=O)c2ccccc2OC)c1 | 1.3%
COc1cccc(CN2CCc3nc(N4CCN(c5ncccn5)CC4)ncc3C2)c1 | 1.4%
CSc1ccc(CCNC(=O)CN2C(=O)COc3ccc(S(=O)(=O)N4CCCCCC4)cc32)cc1 | -0.1%
COc1ccc(C2=CC(c3ccccc3Cl)n3nc(-c4ccc(C)cc4)nc3N2)cc1 (stereo unspecified) | 0.3%
Cc1nn(CC(=O)NCc2ccccc2Br)c(=O)c2cc3occc3n12 | 1.4%
C=C1C=C(C)n2ncc(C(=O)Nc3ccc(C)cn3)c2N1 | 0.1%

New compounds follow:
SMILES | PINK1 expr mod
CCN(Cc1ccncc1)Cc1ccc2c(c1)CN(C(=O)c1ccc(OC)cc1)CCO2 | -0.8%
CCc1ccc(NC(=O)Cn2c(=O)n(-c3cccc(OC)c3)c(=O)c3c(C)c(C(=O)N(C)C)sc32)cc1 | 1.8%
COc1cccc(CN2C(=O)c3ccccc3C2C(=O)NCCc2ccccc2)c1 (stereo unspecified) | 2.5%
CCOc1ccc(NC(=O)c2sc3nc4c(cc3c2N)CCCCCC4)cc1 | 1.1%
CCOc1ccc2nc(Cl)c(C3CC(c4ccc(C)cc4)=NN3C(=O)CCCC(=O)O)cc2c1 (stereo unspecified) | 0.3%
Cc1ccc(NC(=O)CN(c2ccccc2)S(=O)(=O)N(C)C)cc1Cl | 0.1%
CCOC(=O)N1CCC2(CC1)OC(=O)C(C)=C2C(=O)NCc1ccc(C)cc1 | 0.0%
Cc1ccc(NC(=O)Cn2c(=O)c3ccc(Cl)cc3n3nncc23)cc1 | 0.4%
CCOC(=O)c1ccc(S(=O)(=O)N2CCN(c3nc(-c4ccccc4)nc4ccccc34)CC2)cc1 | 0.4%
CC(C)c1ccc(NC(=O)C(Cc2ccccc2)NS(=O)(=O)c2ccc3c(c2)CCC(=O)N3)cc1 (stereo unspecified) | 1.2%
COc1cc(C2NC(=O)c3c(sc4c3CCN(C)C4)N2)cc(OC)c1OC (stereo unspecified) | 3.8%
Cc1ccc(CNC(=O)c2c(-c3ccccc3Cl)noc2C)o1 | 0.1%
CCOC(=O)c1c(C)c(-c2ccccc2)n(CC(=O)Nc2cccc(F)c2)c1C | 0.4%
CCOc1ccc(NC(=O)CC2C(=O)N(c3ccccc3)C(=O)N2Cc2cccc(OC)c2)cc1 (stereo unspecified) | 2.0%
COc1ccc(CC(=O)Nc2sc3c(c2C(=O)Nc2cccc(C)c2)CCCCC3)cc1 | 2.1%
COc1ccc(OC)c(CNc2ncnc3c2nc2n3CCCC2)c1 | -9.6%
Cc1cccc(N2CCN(C(=O)Cn3nc(C)c4sc5ccccc5c4c3=O)CC2C)c1 (stereo unspecified) | 2.2%
O=C(Nc1ccc(O)c(-c2nc3ccccc3o2)c1)c1cccs1 | 1.7%
Cc1onc(-c2ccccc2Cl)c1C(=O)Oc1ccccc1F | 0.6%
COc1ccc(OC)c(NC(=O)Cn2cc(C(=O)c3ccc(Cl)cc3)c(=O)c3cc(OC)ccc32)c1 | 0.8%
CCc1cnc2c(c1SCC(=O)Nc1cc(Cl)ccc1OC)c(=O)n(C)c(=O)n2C | 7.0%
COc1cccc(N2CCN(C(=O)c3ccc(Cn4c(=O)[nH]c5cc(OC)c(OC)cc5c4=O)cc3)CC2)c1 | -0.7%
COc1ccc(-c2nc(CSc3nnc(C)n4c3cc3sccc34)c(C)o2)cc1 | -0.5%
COc1ccc(-c2cnc(C)o2)cc1S(=O)(=O)Nc1cccc(C(F)(F)F)c1 | 4.1%
Cc1cc(C)cc(Nc2nc3ccccc3nc2-n2nc(C)cc2C)c1 | 0.0%

3 compounds out of the list, sorted by molecular weight, largest number first:
SMILES | PINK1 expr mod
CCOc1ccc2nc(Cl)c(C3CC(c4ccc(C)cc4)=NN3C(=O)CCCC(=O)O)cc2c1 (stereo unspecified) | 0.3%
COc1ccc(-c2cnc(C)o2)cc1S(=O)(=O)Nc1cccc(C(F)(F)F)c1 | 4.1%
COc1cccc(CN2C(=O)c3ccccc3C2C(=O)NCCc2ccccc2)c1 (stereo unspecified) | 2.5%

Part of the list above, with tabs:
compound	PINK1 expr mod
COc1ccc(OC)c(NC(=O)Cn2cc(C(=O)c3ccc(Cl)cc3)c(=O)c3cc(OC)ccc32)c1	0.8%
CCc1cnc2c(c1SCC(=O)Nc1cc(Cl)ccc1OC)c(=O)n(C)c(=O)n2C	7.0%

Continued:
SMILES | PINK1 expr mod
COc1ccc(CNC(=O)Cc2c(C)c3ccc(O)cc3oc2=O)cc1 | 9.4%
CCc1ccc(-c2cc3c(N4CCN(c5ccccc5)CC4)nccn3n2)cc1 | 0.0%
Cc1ccccc1Nc1nn2c(=O)c3ccc(C(=O)NCCc4ccc(Cl)cc4)cc3nc2s1 | 3.6%
CCOc1ccc(C2C(C(=O)Nc3ccccc3)=C(C)Nc3nc(SCc4cccc(OC)c4)nn32)cc1 (stereo unspecified) | 1.3%
Cc1ccc(C)c(Cn2c(=O)n(CCc3ccccc3)c(=O)c3c(C)c(C)sc32)c1 | 1.5%
Oc1c(C(Nc2cccnc2)c2ccccc2F)ccc2cccnc12 (stereo unspecified) | 1.1%
Cc1cccn2c(=O)cc(COc3cccc(NC(=O)c4cccc(Cl)c4)c3)nc12 | 0.3%
COc1cccc(CNc2nccn(-c3ccc(OC)c(OC)c3)c2=O)c1 | 3.9%
CCC(CC)C(=O)N1CCc2cc(OC)c(OC)cc2C1COc1ccc2c(C)cc(=O)oc2c1 (stereo unspecified) | -1.1%
Cc1ccc2c(c1)c(=O)c1ccccc1n2CCCC(=O)Nc1c(F)cccc1F | 0.9%
CCc1ccccc1N(C)C(=O)c1ccc2c(=O)n3c(nc2c1)CCCCC3 | 2.0%
CC1=C(c2ccc(C(C)C)cc2)S(=O)(=O)NC1=NCc1ccccc1C | 7.8%
CC1Cc2cc(S(=O)(=O)CCC(=O)NCc3ccccc3Cl)ccc2N1C(=O)C1CC1 (stereo unspecified) | 11%
Cc1ccc2oc(-c3ccc(NC(=O)CCC(=O)O)cc3)nc2c1 | -4.7%
CCOC(=O)c1cc(-c2ccccc2)nn1Cc1ccccc1 | 2.2%
Cc1cccc(NC(=O)Cn2c(=O)n(Cc3ccccc3)c(=O)c3oc4ccccc4c32)c1C | 2.7%
Cc1c(-c2nc(-c3ccccc3)no2)nnn1-c1ccc(F)c(Cl)c1 | 1.5%
COc1cccc(CNC(=O)C2CCN(c3nc4ccc(Cl)cc4[nH]3)CC2)c1 | 0.0%
Cn1c(-n2cccc2)c(-c2c(-c3ccccc3)[nH]c3c2c(=O)n(C)c(=O)n3C)c(=O)n(C)c1=O | 1.0%
CN(C)CCn1c2c(c(SCC(=O)Nc3ccc(F)cc3F)nc1=O)CCC2 | -0.4%
CCCC(=O)N(c1ccc2oc3c(c2c1)CCCC3)S(=O)(=O)c1cc(C)ccc1C | -0.9%
CCc1ccccc1NC(=O)Cn1ncc2c(C)n(Cc3ccccc3F)c(C)c2c1=O | -0.6%
CCc1ccc(NC(=O)CSC2=Nc3ccccc3C3=NC(CCC(=O)NCCc4ccccc4)C(=O)N23)cc1 (stereo unspecified) | 0.0%
CCc1ccc(S(=O)(=O)Nc2cc3c(cc2C)n(C)c(=O)c(=O)n3C)cc1 | 0.2%
CCc1cccc(C)c1NC(=O)C(CC)n1ncn2c(cc3cc(C)ccc32)c1=O (stereo unspecified) | 0.8%
COc1cccc(N2CCN(S(=O)(=O)c3ccc4c(c3)CCCN4C(C)=O)CC2)c1 | -1.5%
CCCN(CCC)C(=O)c1c[nH]c2ccc(S(=O)(=O)N(C)c3ccc(Cl)cc3)cc2c1=O | 1.8%
O=C(CCC1N=C2c3ccccc3N=C(SCc3cccc(F)c3)N2C1=O)NC1CCCCC1 (stereo unspecified) | 2.1%
COc1ccc(-n2nc(C(=O)Nc3cccc(C(F)(F)F)c3)c3c4ccccc4n(C)c3c2=O)cc1 | -0.9%

Four compounds out of the list above, sorted by the value under PINK1 expr mod, falling.
mol,PINK1 expr mod
CC1Cc2cc(S(=O)(=O)CCC(=O)NCc3ccccc3Cl)ccc2N1C(=O)C1CC1 (stereo unspecified),11%
CCCN(CCC)C(=O)c1c[nH]c2ccc(S(=O)(=O)N(C)c3ccc(Cl)cc3)cc2c1=O,1.8%
Cc1c(-c2nc(-c3ccccc3)no2)nnn1-c1ccc(F)c(Cl)c1,1.5%
CCc1ccc(-c2cc3c(N4CCN(c5ccccc5)CC4)nccn3n2)cc1,0.0%
